# hNpr1 antagonist: human Npr1 receptor antagonism; P16066; HEK293 hNpr1 GloSensor cGMP, ANP-stimulated luminescence; Potency, µM (highest dose often 46.3 µM), for inactives: at the top dose activity change, negative = inhibition, actives largely listed as inhibitors; actives 1.6% (n = 76,000); active = well fitted inhibition curve with a large enough effect; inconclusive = small, poorly fitted or top-dose-only effect; inactive = no such curve, though single readings can be large or run the other way;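 also: nearly all actives have a fitted effect of over 60% in size; nearly all hits also lower the signal before the agonist is added; a reference antagonist and vehicle were the controls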
# Target sequence (P16066 whole entry, looked up): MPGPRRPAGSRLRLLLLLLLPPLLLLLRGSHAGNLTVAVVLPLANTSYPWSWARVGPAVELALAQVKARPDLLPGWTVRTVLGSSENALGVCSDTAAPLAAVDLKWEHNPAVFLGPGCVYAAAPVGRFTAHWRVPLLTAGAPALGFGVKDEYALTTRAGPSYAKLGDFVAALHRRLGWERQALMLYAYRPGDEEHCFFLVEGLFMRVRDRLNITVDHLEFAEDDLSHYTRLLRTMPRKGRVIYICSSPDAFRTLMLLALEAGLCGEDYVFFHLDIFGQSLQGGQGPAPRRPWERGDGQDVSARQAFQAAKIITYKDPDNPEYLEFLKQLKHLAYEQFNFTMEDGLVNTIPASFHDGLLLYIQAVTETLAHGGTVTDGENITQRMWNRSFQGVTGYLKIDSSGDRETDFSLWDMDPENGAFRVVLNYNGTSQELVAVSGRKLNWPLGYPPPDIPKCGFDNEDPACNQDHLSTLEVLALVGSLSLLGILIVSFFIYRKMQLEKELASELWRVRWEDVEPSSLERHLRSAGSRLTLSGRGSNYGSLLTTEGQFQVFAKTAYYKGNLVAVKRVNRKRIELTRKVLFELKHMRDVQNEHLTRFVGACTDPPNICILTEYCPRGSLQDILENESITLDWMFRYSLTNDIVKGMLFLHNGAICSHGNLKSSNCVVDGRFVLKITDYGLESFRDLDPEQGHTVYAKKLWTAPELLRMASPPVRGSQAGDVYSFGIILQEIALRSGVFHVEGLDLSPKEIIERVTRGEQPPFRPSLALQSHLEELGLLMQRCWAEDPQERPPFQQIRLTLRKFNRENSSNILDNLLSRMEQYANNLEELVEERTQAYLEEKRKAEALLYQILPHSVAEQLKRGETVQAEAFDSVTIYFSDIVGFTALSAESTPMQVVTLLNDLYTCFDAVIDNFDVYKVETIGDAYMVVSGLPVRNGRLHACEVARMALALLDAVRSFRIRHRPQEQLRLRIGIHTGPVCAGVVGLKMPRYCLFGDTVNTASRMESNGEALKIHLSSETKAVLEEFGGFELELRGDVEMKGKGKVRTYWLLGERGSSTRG
#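 Compound pre-incubated 30 min at room temperature on GloSensor-loaded HEK293 cells stably carrying hNpr1 and the pGS-40F cGMP biosensor. Stimulation uses hNppA at 0.1 nM final; luminescence is taken at baseline and 20 min post-agonist.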
# * hit, by the source's call; ? = inconclusive; [ ] = remark or other dose. % is scaled to controls: 0 for no effect and ±100 for the full control effect; potency is read from the fitted curve at half-maximal effect. Only part of the results is shown. The share of hits here may be higher or lower than overall.
entry	SMILES	hNpr1 antagonist
1	COc1ccc(CNC(=O)C2Cn3cccc3C(=O)N2Cc2ccccc2)cc1OC (centres undefined)	-1%
2	COc1ccc(C(NC(=O)Cn2cccnc2=O)C2CC(O)C2)cn1 (centres undefined)	-1%
3	Cc1cc(C)c2c(N3CCCC(OCc4cccnc4)C3)ncnc2n1 (centres undefined)	-2%
4	CN(C)C(=O)C1CN(C(=O)Nc2cccc(Cl)c2)CC12CCOCC2 (centres undefined)	5%
5	CCn1c(=O)c2ccnn2c2ccc(C(=O)N3CCN(c4ccccc4)CC3)cc21	6%
6	COC[C@H](C)NC(=O)c1cccc(S(=O)(=O)N(C)Cc2cnccn2)c1	0%
7	Cc1cccc(OCCc2noc(C3CCN(C(=O)c4cn[nH]c4)C3)n2)c1 (centres undefined)	12%
8	COc1ccc(CNCC2(CO)C[C@@H](O)[C@@H](O)C2)cc1 (some centres undefined)	1%[70.6 µM]
9	O=C(C1CCOC1)N1CCC2(CC1)NCCc1c2[nH]c2ccccc12 (centres undefined)	2%
10	CC(=O)Nc1ccc(CC(=O)N2CCCC(Cc3nncn3CC3CC3)C2)cc1 (centres undefined)	0%
11	CN(C1CCOCC1)C1CCN(C(=O)c2cccnc2)CC1	4%
12	CS(=O)(=O)N1CCC(NC(=O)c2c(O)cccc2O)CC1	4%
13	COc1ccc(C(=O)N2CC3(C2)NC(=O)c2ccccc2O3)cc1	0%[70.6 µM]
14	Cc1oc2c(c1C(=O)N(C)C)CN(Cc1ccc(Br)o1)CC2	-7%
15	Cc1cnc(C2CCNC2)n1Cc1ccccc1 (centres undefined)	1%
16	CCC(=O)N1CC(C(=O)Nc2ccccn2)C2(CCOCC2)C1 (centres undefined)	6%
17	COCCN1CCCCCC(O)c2cc(C(=O)NCc3nc4ccccc4n3C)ccc21 (centres undefined)	-1%
18	CC(=O)N[C@@H]1CN(Cc2ccc(F)c(Br)c2)C[C@H]1CO	2%
19	CCN1CCN(CCCNC(=O)CC2CCN(c3ccnc(NC)n3)CC2)CC1	-1%
20	CCc1nc2nccc(-c3ccc(Br)cc3)n2n1	-1%
21	COc1ccc(CN2C(=O)COC[C@H]2C(=O)NCc2ccccc2F)cc1OC	0%
22	O=C(c1ccc2c(c1)OCO2)N1CCC(n2cc(-c3nc(-c4ccccc4)no3)nn2)C1 (centres undefined)	13µM*
23	Cc1ccc(C2Cn3nnc(C(=O)N4CCC(C(=O)NCCc5cccs5)CC4)c3CO2)cc1 (centres undefined)	-1%
24	CC(C)c1ncc(C(=O)N2CC[C@H](N3CCN(C)CC3)[C@H](CCCO)C2)cn1	5%
25	O=C(NC1CCCCC1)N[C@H]1C[C@H]2C(=O)N3CCC[C@@H]3C(=O)N2C1	5%[70.6 µM]
26	CN(C)C[C@@H]1CN(Cc2ccccn2)C[C@H]1NC(=O)c1cc(C2CC2)[nH]n1	2%
27	O=C(c1ccccc1F)N1C[C@@H](CO)[C@H](c2nc(C3CC3)no2)C1	1%
28	Cc1nnc2n1C(C)CN(C(=O)COc1ccc(-n3cnnn3)cc1)C2 (centres undefined)	0%
29	CC[C@H]1CN(C(C)=O)CC[C@H]1CC(=O)NC(C)C	3%[70.6 µM]
30	CC(C)N1C[C@H](O)C[C@H]1c1nnc2n1CCN(C(=O)Cc1c[nH]c3ccccc13)CC2	-7%
31	CS(=O)(=O)N1C[C@H]2CCN(C(=O)Cc3ccccc3Cl)C[C@H]21	11%
32	c1cc2nnc(C3CCC3)n2nc1NCC1CCCO1 (centres undefined)	2%
33	CCN(CC)C(=O)C(NC(=O)c1ccc(F)cc1)C1CCN(C(=O)C(C)C)CC1 (centres undefined)	-4%
34	O=C(C1CCCO1)N1CCN(Cc2ccc(=O)n(CC3CC3)c2)CC1 (centres undefined)	-13%
35	CC(C)N1C(=O)[C@@H]2[C@@H](CCN2C(=O)CCCC(=O)O)N(Cc2cccc(F)c2)C1=O	2%[70.6 µM]
36	O=C1CCN(S(=O)(=O)c2ccccc2)CCCN(Cc2cccc(OC(F)(F)F)c2)CCN1	-13%
37	CCC(=O)N1CCCN(CCN(C)C)c2ccccc21	5%
38	COc1ccccc1NC(=O)Cn1c(=O)c(-c2noc(C)n2)c2n(c1=O)CCCCC2	-3%
39	CCc1nncn1C1CCN(S(=O)(=O)c2ccc(OC)c(OC)c2)CC1	-1%
40	CCc1nccn1CCC(=O)N[C@@H]1COCC[C@@H]1Oc1ccc(F)cc1	6%
41	COc1cccc(CN2Cc3nc(-c4cn[nH]c4)ccc3OCC2=O)c1	-2%[70.6 µM]
42	C1CCC(CN2CCCC(c3nc(CCOCC4CCOCC4)no3)C2)CC1 (centres undefined)	-14%
43	CCOC(=O)C1=C(C)N=C2SC=C(CC(=O)N3CCCC3)N2C1c1cccc(Cl)c1 (centres undefined)	?
44	CN(C)[C@@H]1CN(C(=O)c2nccn2C)CC[C@@H]1CO	-4%
45	O=C(c1cnn(-c2ccccc2)c1)N1CC[C@H](N2CCOCC2)[C@H](CCCO)C1	-1%
46	Cc1cc(F)ccc1OC1CN(C(=O)c2ccc3c(c2)OCO3)C1	-6%[70.6 µM]
47	NC(=O)C1CCN([C@H]2[C@@H]3OC[C@@H](O3)[C@@H](NCc3cnc4ccccc4c3)[C@@H]2O)CC1	-18%[70.6 µM]
48	Cc1ccc(C2Cn3nnc(C(=O)N4CCN(C(=O)c5ccc(Cl)cc5)CC4)c3CO2)cc1 (centres undefined)	-4%
49	COCCNC(=O)C[C@@H]1C[C@H]2O[C@H](CNCc3ccccc3C(F)(F)F)[C@@H](O)[C@H]2O1	-3%[70.6 µM]
50	Cn1nccc1C(=O)N1CCc2nn(Cc3ccccc3)c(=O)n2CC1	-1%
51	Cc1cc(F)cc(CN2CCOCC3(C2)CN([S+](=O)([O-])c2ccccc2)C3)c1	4%[70.6 µM]
52	O=C(Nc1ccccc1)c1nc2c(o1)CCN(Cc1ccccn1)CC2	?
53	O=C(NCC1(c2ccccc2F)CCCC1)C1CCN(C(=O)C2CC2)CC1	0%
54	COc1ccc2[nH]c(=O)c(CCC(=O)N3CCCC3)cc2c1	2%
55	O=[N+]([O-])c1cccc(-c2noc([C@@H]3C[C@@H](O)CN3Cc3ccccc3O)n2)c1	0%[70.6 µM]
56	COc1ccc(NC(=O)N2Cc3[nH]cnc3C[C@H]2c2nc(-c3ccc(Cl)cc3)no2)cc1	?
57	COc1cc(C)c2c(c1C)C[C@H](C(C)C(=O)N1CCCCC1)CC2 (some centres undefined)	4%[70.6 µM]
58	Cc1cccc(CCN2CCC3(CC2)C(C(=O)O)CC(=O)N3C)n1 (centres undefined)	-1%
59	Cc1ccc(C2Cn3nnc(C(=O)N4CCC(C(=O)NCc5ccncc5)CC4)c3CO2)cc1 (centres undefined)	-4%
60	COCCN(C)C[C@@H]1CN(c2cc(C)c3ccc(SC)cc3n2)C[C@@H]1CO	-1%

# (next part)
entry	SMILES	hNpr1 antagonist
61	CC(=O)N1CCC(CC(=O)N2C[C@@H](Oc3cccnc3)C[C@H]2C(=O)N2CCOCC2)CC1	-10%
62	CN1[C@@H](CCC(=O)N2CCN(c3ccccn3)CC2)CNC(=O)[C@@H]2[C@H]1CCN2Cc1ncc[nH]1	-2%
63	CCOCC(=O)N1[C@@H]2CC[C@H]1CC(NC(=O)c1ccc(F)cc1)C2 (some centres undefined)	3%
64	Cc1ccc2nc(C(=O)N(C)Cc3cn[nH]c3-c3ccc(F)cc3)cn2c1	2%
65	O=C(COc1ccc(-c2nnc3n2CCCC3)cc1)Nc1ccc(F)cc1	-1%
66	Cc1nc(CCNC(=O)CC(C)(C)C)no1	-8%
67	c1ccc(Cn2cc(CN3CCCOCC3)c(-c3cc4ccccc4o3)n2)cc1	1%
68	COCCNC(=O)C(NC(=O)c1ccc(F)cc1)C1CCN(C(=O)c2ccccc2F)CC1 (centres undefined)	-5%
69	COc1ccc(C(=O)NC2CCN(c3cn[nH]c(=O)c3)CC2)cc1F	-2%
70	COC1CCC12CCN(C(=O)c1cc(C)n(C)n1)CC2 (centres undefined)	-1%
71	CC(Cn1cccn1)Nc1ccc(-c2nc(COc3ccccc3)no2)cn1 (centres undefined)	?
72	CCc1ccc(S(=O)(=O)N(C)CC2CCOCC2)cc1	-20%
73	O=C1NC(C(=O)NCc2cc(F)ccc2F)Cn2cccc21 (centres undefined)	1%
74	CC(=O)N[C@H]1C[C@@H](Cc2cc(CN3CCCCC3)on2)C1(C)C	-2%[70.6 µM]
75	Cc1ccc(NC(=O)CCNc2c(C)nc3cnccn23)c(F)c1	-3%
76	c1ccc(CCN2CCNc3cc(-c4cn[nH]c4)ncc3C2)cc1	-27%[70.6 µM]
77	CC1=C[C@@H](CNC(=O)c2ccccc2)[C@H](C(C)C)C[C@H]1Cc1nnc(-c2cncn2C)o1	-15%[70.6 µM]
78	COc1cccc(CN2CCCN(Cc3ccncc3)C(c3ccccc3)CC(=O)NCC2)c1OC (centres undefined)	-2%
79	COc1cccc(C(=O)NCC2CCCN(Cc3ccc(C)cc3)C2)c1OC (centres undefined)	2%
80	O=C1CCN(Cc2ccc(O)cc2)CCCC(c2nc(-c3cnccn3)no2)CCN1 (centres undefined)	3%
81	CC(C)(C)C(=O)N[C@H]1C[C@@H](Cc2cc(CN3CCN(c4ccccc4)CC3)on2)C1(C)C	11µM*
82	CCOc1ccc(-c2nnc(CCC(=O)NC(C)CC)c(=O)[nH]2)cc1 (centres undefined)	-5%
83	CC1CCN(C(=O)C2N(C(C)C)C(=O)C23CCCC3)CC1 (centres undefined)	-2%
84	CO[C@@H]1CO[C@H]2[C@@H]1OC[C@@H]2NS(C)(=O)=O	-12%[70.6 µM]
85	CCCc1cnc(C)nc1N1CC[C@@H](NC(=O)c2cnccn2)[C@H](O)C1	-1%
86	CCC1=NOC(CNC(=O)c2ccc(OC3CCN(C(=O)COC)CC3)cc2)C1 (centres undefined)	3%
87	O=C(NC[C@H]1Cn2c(-c3ccc4c(c3)OCCO4)cnc2CO1)C1CC1	-3%[70.6 µM]
88	Cc1ncoc1C(=O)N1CCOc2ccc(CCC(=O)NCC3CC3)cc2C1	4%
89	Fc1ccc(-c2cnc3n2C[C@H](CNCc2ccc4c(c2)OCO4)OC3)cc1	?
90	CC(NC(=O)C1CCCO1)C(=O)N1CCN(c2ccccn2)CC1 (centres undefined)	4%
91	CN(Cc1ccccc1)C1(C(=O)NC2CCC(O)CC2)Cc2ccccc2C1 (centres undefined)	6%
92	O=C(NCc1nc(-c2ccccn2)no1)C1COc2ccccc2C1 (centres undefined)	0%
93	COc1ccc(CCC(=O)N[C@@H]2CN(c3ncccn3)C[C@H]2CO)cc1	-1%
94	Cc1cccc(N2CCN(C(=O)CCc3ccnc(N4CCCC4)c3)CC2)c1	-15%
95	O=C(c1coc(COc2ccc(F)cc2Cl)n1)N1C[C@H]2CC[C@H]1C2	8%
96	O=C(CN1C(=O)NC2(CCCCC2)C1=O)Nc1ccc(F)c(F)c1	2%
97	COc1ccc(C(=O)N2C[C@@H](Oc3ccccc3)C[C@H]2C(=O)NC2CC2)c(OC)c1	-1%
98	CC(C)(C)C(=O)NC1CCCc2c1[nH]c1ccc(F)cc21 (centres undefined)	-7%
99	COCc1ccc2c(c1)c(OC(C)(C)C(=O)NCc1cnccn1)nn2Cc1cccnc1	9%
100	COc1cccc(CN2CCc3c(cc(C(=O)Nc4cc(C)ccc4OC)n3C)C2)c1	-6%

# Four compounds already listed, arranged by molar mass, highest first.
entry	SMILES	hNpr1 antagonist
100	COc1cccc(CN2CCc3c(cc(C(=O)Nc4cc(C)ccc4OC)n3C)C2)c1	-6%
97	COc1ccc(C(=O)N2C[C@@H](Oc3ccccc3)C[C@H]2C(=O)NC2CC2)c(OC)c1	-1%
85	CCCc1cnc(C)nc1N1CC[C@@H](NC(=O)c2cnccn2)[C@H](O)C1	-1%
83	CC1CCN(C(=O)C2N(C(C)C)C(=O)C23CCCC3)CC1 (centres undefined)	-2%

# Other entries:
entry	SMILES	hNpr1 antagonist
101	CCC(O)c1cc2n(n1)CCN(C(=O)c1cnn(-c3ccccn3)c1C)C2 (centres undefined)	5%
102	CN(C(=O)CC(c1ccccc1)c1ccc(Cl)cc1)C1CCOCC1 (centres undefined)	-24%
103	CC(C)c1noc([C@@H]2C[C@@H](O)CN2Cc2ccc(CO)o2)n1	0%[70.6 µM]
104	COC[C@]1(O)CCN(C(=O)c2sc(OC)nc2C)CC1(C)C	0%
105	COc1ccc(CN2CCC3(CC2)COc2ccccc2CN3)cc1	0%
106	COc1ccc(N2Cc3c(NCCc4ccccc4F)ncnc3N(C)CC2=O)cc1	7%
107	COCc1cc(C[C@@H]2CC[C@H](O)[C@@H](CNC(C)C)O2)no1	3%[70.6 µM]
108	COc1ccc(C)nc1-c1cnc2ccccc2c1	2%
109	COc1ccc(O)cc1CN1CCC2(CCNCC2)C1	-2%
110	Cc1ccc(C(=O)N2CCCCCCNC(=O)[C@@H]3CCCC[C@@H]32)s1	5%
111	CCC(O)c1cc2n(n1)CCN(C(=O)CCn1cnc3ccccc3c1=O)C2 (centres undefined)	2%
112	COc1ccc(C(=O)N2CCC3(CC2)NC(=O)N(c2cccc(F)c2)N3)cc1OC	3%
113	CCCc1noc(-c2cccn3c(CNC(=O)c4ccc5cc[nH]c5c4)nnc23)n1	0%
114	CSc1ccc(NC(=O)c2ccc3c(c2)N(C)C2CCCCCN2C3=O)cc1 (centres undefined)	?
115	CCN1C(=O)C2CC3(CCN(C(=O)c4cnc(C)cn4)CC3)CN2C1=O (centres undefined)	2%
116	COc1cccc(-c2nnnn2[C@H]2CO[C@H]3[C@@H]2OC[C@@H]3NC(=O)C2CCCCC2)c1	?

# Entries above with a COOH group (2):
entry	SMILES	hNpr1 antagonist
35	CC(C)N1C(=O)[C@@H]2[C@@H](CCN2C(=O)CCCC(=O)O)N(Cc2cccc(F)c2)C1=O	2%[70.6 µM]
58	Cc1cccc(CCN2CCC3(CC2)C(C(=O)O)CC(=O)N3C)n1 (centres undefined)	-1%

# Source: PubChem
